PrP 5UTR inh – inhibition of PrP 5' UTR reporter expression | actives 0.35% (n = 340,000) | cell-based PrP 5' UTR mRNA reporter, plate reader | inhibition, % (test concentration not listed) | AID 488862, 2010;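 active = every replicate at 50% or more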;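 note: 0 = median of the neutral control wells; tested in H4 reporter cells; numbers are from one replicate; inactives centre near -14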
Bead autofluor – compound fluorescence in toxin protease inhibitor counterscreen | compound autofluorescence counterscreen, microsphere flow cytometry; stronger effect = higher value | fluorescence intensity (test concentration not listed) | actives 3.1% (n = 360,000) | AID 624483;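 active = at least 3 SD above the mean of all compounds, about 16000 in these data; inconclusive = too few beads counted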;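 note: 100 nL of 1 mM stock went into each well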
Sa ugtP lethal – growth inhibition of ugtP-null S. aureus, primary screen, RN4220 ugtP deletion, OD600 | 16 h; some inactives read as strong as hits | growth inhibition, % (test concentration not listed) | actives 0.54% (n = 330,000);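 active = z-score under -3 and OD600 up to 0.15 on both plates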;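 note: plate controls were untreated wells for no effect and antibiotic for full effect; wells of about 80 µL received 100 nL stock; the first replicate is given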
RN4220 kill – growth inhibition of S. aureus RN4220, primary screen, OD600; 16 h; inhibition, % (concentration not given with the values); actives 0.33% (n = 330,000); AID 1259311, 2017;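 active = z-score of -3 or lower and OD600 up to 0.18 on both plates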;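 note: plate controls were untreated cells for no effect and reference antibiotic for full effect; stock transfer was 100 nL into about 80 µL; one replicate is shown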
Mtb hypoxia rep – PubChem AID 1159583. M. tuberculosis hypoxia-regulated fluorescent reporter, fluorescence. fluorescence inhibition, % (concentration not given with the values). actives 0.1% (n = 300,000);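 active = 35 to 45% if threefold the growth effect, above 45% if 1.5-fold the growth effect; inactive = the rest, general growth blockers included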;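 note: wells of about 50 µL received 100 nL stock; 0% = vehicle wells and 100% = reference inhibitor wells; whole bacteria with a GFP reporter of the hypoxia response; strong numbers were not always called active; many hits fall short of the cut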
BJeLR lethal – MLPCN primary cell-based screen for lethality selective to Ras in HRASV12 cells | BJeLR (HRASV12) viability, CellTiter-Glo ATP luminescence, 48 h; reference of the scale not given here | inhibition, % (concentration not given with the values) | actives 0.17% (n = 300,000) | AID 1554, 2009;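 active = replicate mean above 50%; inconclusive = above 50% but judged a plate artefact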;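 note: 50 nL library stock added to about 25 µL; numbers are from one replicate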
Mtb hypoxia rep growth – also measured in Mtb hypoxia rep; calls as there; growth inhibition, %; measured here: M. tuberculosis growth (absorbance);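 0% = vehicle and 100% = reference antibiotic; read after six days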
Numbers without * were called inactive; u = inconclusive; x = no result given.

SMILES	PrP 5UTR inh	Bead autofluor	Sa ugtP lethal	RN4220 kill	Mtb hypoxia rep	Mtb hypoxia rep growth	BJeLR lethal
CC(C)COc1ccc(-c2nnn(CC(=O)N3CCCC3)n2)cc1	-20	14992	5	3.6	5	6	-4
O=C1CC(N2CCCCCC2)C(=O)N1c1ccc(F)cc1 (configuration not stated)	-9	2394	5	18	-1	-14	2
Cc1cccc(NC(=O)c2ccc(NC(=O)c3ccccc3Br)cc2)c1	-23	4315	-4	3.7	10	13	4
CCOc1cccc(C(=O)Nc2cccc(-c3nnc(-c4ccccc4)o3)c2)c1	-76	10182	-13	1.4	8	2	4
Cc1ccc(NCC(=O)N/N=C/c2ccc(OC(=O)c3ccco3)cc2)cc1	-3	5166	x	x	x	x	4
CN(C)c1ccc(C(=O)OCC(=O)NC2CCCCCC2)cc1	-18	4223	8	5.0	14	8	13
O=C(COC(=O)c1ccco1)NCc1ccccc1Cl	-33	3348	6	13	1	9	14
CC(C)NC(=O)CSc1nnc(-c2ccco2)n1N	x	12191	4	2.9	5	1	-2
O=C(NCN1CCCCC1)c1cccnc1	-16	9923	6	2.7	4	-4	3
COc1ccc(Cl)cc1NC(=O)CN1C(=O)NC2(CCCC2)C1=O	-24	5919	-4	-2.2	4	8	-7
N/C(Cc1ccc(Cl)cc1Cl)=N\OC(=O)Cc1ccccc1	-6	1988	2	2.8	1	7	-7
CC(C)CNC(=S)N1CCN(C)CC1	-19	8506	-3	1.6	8	10	-1
O=C(CN1C(=O)C2CC=CCC2C1=O)NC1=NCCS1 (configuration not stated)	-6	3522	3	1.2	0	-5	-7
Cc1ccc(C=NNC(=O)Cn2cnc3ccccc32)cc1	x	x	0	2.5	3	-9	x
COc1ccc(Nc2nnc(SCC(=O)N3CCCC3)s2)cc1	-6	4396	1	2.7	x	x	-1
CN1CCN(C(=O)C2=C[C@@H](C(C)(C)C)C[C@@H](OCc3ccc(CO)cc3)O2)CC1	-2	4056	x	x	x	x	0
Cc1ccc(-n2nc(C)c(C3(O)C(=O)N(C(C)C)c4ccccc43)c2N)cc1 (configuration not stated)	-40	1976	-1	11	11	8	13
NC(=O)COC(=O)c1c2c(nc3ccccc13)CCC2	-23	4605	3	12	0	7	5
CC(=NNc1ccc(Cl)c(Cl)c1)c1ccc(-n2ccnc2)cc1	x	x	-5	-13	0	0	x
CCOC(=O)C1(Cc2cccc(OC)c2)CCN(Cc2cnc(SC)nc2)CC1	-52	5318	2	2.8	2	-2	-3
N#Cc1ccc(Nc2ccccc2)c(N)c1	-14	2434	0	4.2	x	x	-17
CCn1c(SCC(=O)NN=Cc2cc(OC)c(OC)c(OC)c2)nc2ccccc21	x	x	2	4.7	10	3	x
OC(c1cccc(Cl)c1)(c1cccc(Cl)c1)C1CN2CCC1CC2 (configuration not stated)	-17	u	-25	-0.1	11	4	1
O=C(CNC(=O)c1ccc(Br)o1)NCc1ccc(F)cc1	-1	5976	0	4.4	-16	-10	-4
O=C(COC(=O)c1ccccc1OCC(=O)Nc1ccc(Br)cc1)Nc1ccccc1	6	1863	5	8.9	-14	-13	-15
S=C(NCc1ccco1)N1CCN(C/C=C/c2ccccc2)CC1	-13	4308	-8	-3.7	3	4	2
CCCNS(=O)(=O)c1ccc2c(c1)n(C)c(=O)n2C	-8	4741	4	1.2	-6	-9	-9
O=C1c2ccccc2S(=O)(=O)c2cc(N3CCOCC3)ccc21	36	3319	4	4.3	9	2	-4
COc1cc(NC(=O)CCc2ccccc2)c(C(=O)O)cc1OC	-12	x	4	19	-10	2	-4
CC(C)CC1CN=C(N(C)C)N1CC(C)C (configuration not stated)	x	x	-4	4.1	0	6	x
Cc1cc(C)nc(NC(=O)c2cccc([N+](=O)[O-])c2)c1	-9	2454	1	4.8	8	7	6
COC(=O)c1c(-c2ccccc2)noc1C	-20	3128	16	8.7	-1	6	-3
CCOc1ccc(N2C(=O)C(=O)/C(=C(/O)c3ccccc3)C2c2ccccc2[N+](=O)[O-])cc1 (configuration not stated)	-20	6225	-12	-5.7	-13	2	3
COc1cc(SC)ccc1C(=O)N(CC(=O)Nc1ccccc1Br)Cc1ccco1	-18	6359	35	-0.2	0	-1	-12
Cc1cccc(C(=O)N2CCCC(N3CCN(c4ccccc4F)CC3)C2)n1 (configuration not stated)	-1	5124	4	2.7	6	7	-11
O=C(O)CCCCCNCc1c(Cl)cccc1Cl	-16	4014	-4	0.1	-4	1	4
Cc1cccc(N2CCN(C(=O)CCn3c(=O)[nH]c4ccsc4c3=O)CC2C)c1 (configuration not stated)	3	5392	4	5.2	1	5	-4
CNC(=O)/C(C#N)=C/c1cccc(Oc2ccccc2)c1	-14	4093	-13	12	15	5	10
COc1cccc(OC)c1Nc1nc(C)nc2c1nnn2Cc1ccccc1Cl	-22	4165	-3	4.3	-5	2	3
O=C(c1ccco1)N1CCN(C(=O)c2ccccc2OCc2ccccc2)CC1	-6	3798	5	5.3	1	10	x
COc1ccc(Cc2nnc(N/N=C/c3ccc(C)o3)[nH]c2=O)cc1	-10	2492	x	x	x	x	-4
CCc1cc(=O)oc2c(C)c(OC(C)C(=O)N3CCC[C@@H]3C(=O)O)ccc12 (some centres not stated)	-10	4196	-1	3.0	x	x	-4
CC(C(=O)Nc1ccc2c(c1)OCCO2)c1ccc([N+](=O)[O-])cc1 (configuration not stated)	-7	3153	14	0.0	7	7	-2
O=C(CSc1ncn[nH]1)Nc1ccc(S(=O)(=O)N2CCCC2)cc1	-6	4722	0	2.2	x	x	3
COc1ccc(OCc2cc(C(=O)N(C)CC3CCCCO3)no2)c(Cl)c1 (configuration not stated)	-33	6448	6	4.7	8	2	0
CN1C(=O)c2ccc(NC(=O)C3CCCCC3)cc2C1=O	-14	8008	9	2.8	11	4	5
O=C(O/N=C\c1ccc(N2CCCCC2)c([N+](=O)[O-])c1)c1c(F)cccc1F	-9	3058	x	x	x	x	-2
CCOC(=O)c1c(NC(=O)CNCC(O)CO)sc(C)c1C (configuration not stated)	-17	2775	9	6.2	17	18	2
COc1ccc(OC)c(NC(=O)CN(c2ccc(C)cc2)S(=O)(=O)c2c(C)noc2C)c1	-11	4629	4	0.0	x	x	3
CCC1(CC)NC(=O)N(CC(=O)OCC(=O)Nc2ccc(C(F)(F)F)cc2)C1=O	-1	3839	4	6.0	x	x	-1
Cc1cccc(C(=O)Nc2nnc(SCC(=O)NCc3ccco3)s2)c1	-40	5421	3	-5.2	6	6	2
C=C(C)CNC(=S)NNC(=O)CCn1c2cc(Cl)ccc2c2ccc(Cl)cc21	0	2503	-18	7.3	-4	-1	-10
CC(=O)c1sc(NCc2ccc(C)cc2)nc1C	-53	3904	0	1.5	3	-1	-1
Cc1cccc2sc(N(CCCN(C)C)C(=O)c3sc4ccccc4c3Cl)nc12	-21	9554	-25	6.7	8	2	x
CC1=CC=CC2=NC(=NS(=O)(=O)c3ccc(F)cc3F)c3ccccc3CN12	x	x	2	-0.2	-10	-11	x
CCCS(=O)(=O)c1cnc(C2COc3ccccc3O2)nc1N (configuration not stated)	86*	3077	3	0.5	8	8	20
O=c1[nH]c2cc3c(cc2cc1CN(Cc1cccnc1)Cc1nnnn1Cc1ccco1)OCCO3	x	7366	9	7.5	4	9	11
CSc1nc2c(c(=O)[nH]1)C(c1ccc(Br)cc1)CC(=O)N2 (configuration not stated)	-13	4046	0	3.2	1	7	0
COc1ccc(N2CCN(C(=O)Cn3nnc(-c4ccc(OC)c(OC)c4)n3)CC2)cc1	-10	12776	3	4.3	8	9	3
COc1ccc(CN2CCC(c3nc4ccc(Cl)cc4[nH]3)CC2)cc1	-28	3752	2	-4.7	19	11	6

Complete entries as entered above:
CC1=CC=CC2=NC(=NS(=O)(=O)c3ccc(F)cc3F)c3ccccc3CN12 in the list: PrP 5UTR inh = x; Bead autofluor = x; Sa ugtP lethal = 2; RN4220 kill = -0.2; Mtb hypoxia rep = -10; Mtb hypoxia rep growth = -11; BJeLR lethal = x
CCCS(=O)(=O)c1cnc(C2COc3ccccc3O2)nc1N (configuration not stated) in the list: PrP 5UTR inh = 86*; Bead autofluor = 3077; Sa ugtP lethal = 3; RN4220 kill = 0.5; Mtb hypoxia rep = 8; Mtb hypoxia rep growth = 8; BJeLR lethal = 20
O=c1[nH]c2cc3c(cc2cc1CN(Cc1cccnc1)Cc1nnnn1Cc1ccco1)OCCO3 in the list: PrP 5UTR inh = x; Bead autofluor = 7366; Sa ugtP lethal = 9; RN4220 kill = 7.5; Mtb hypoxia rep = 4; Mtb hypoxia rep growth = 9; BJeLR lethal = 11

Remaining list, next part:
SMILES	PrP 5UTR inh	Bead autofluor	Sa ugtP lethal	RN4220 kill	Mtb hypoxia rep	Mtb hypoxia rep growth	BJeLR lethal
CCOc1cc(C2NC(=O)c3ccccc3O2)ccc1OC(C)C (configuration not stated)	-17	3944	6	4.4	1	0	2
CCN1CCN(CC(=O)Nc2cc(S(=O)(=O)N3CCCCC3)ccc2Cl)CC1	-12	4333	-2	0.9	2	0	x
CCN1C(=NCC(C)C)N[C@@H](CCc2ccccc2)[C@H](C(=O)NCC(C)C)[C@H]1C	-8	3407	x	x	x	x	1
CCOc1cccc(CNCCO)c1OCc1ccc(Cl)cc1Cl	-20	2472	-14	0.4	8	4	-5
CC(C)(C)c1ccc(/C=C2\Oc3c(ccc(O)c3CN3CCN(CCO)CC3)C2=O)cc1	-30	3600	-9	0.6	1	10	9
CN(CC(=O)NC1CCCCC1)S(=O)(=O)c1cccc2nsnc12	-22	3173	8	2.4	21	5	-4
COc1cc(Cl)c(CN2CCCC(CO)(Cc3cccc(Cl)c3)C2)cc1OC (configuration not stated)	-22	4319	3	2.0	-6	2	2
CCOC(=O)c1cnc2c(ccc3ccccc32)c1NCCN(C)C	-9	3021	12	2.5	14	2	5
O=C1NC(=S)NC(=O)C1=Cc1ccc2c(c1)CCN2CCCCl	x	3821	0	3.4	5	-1	14
CCN(CC)S(=O)(=O)c1cccc(C(=O)N/N=C2\CC(=O)CC(C)(C)C2)c1	-11	4395	x	x	x	x	-3
CN(C1CC(C)(C)N(O)C(C)(C)C1)S(=O)(=O)CC12CCC(CC1=O)C2(C)C (configuration not stated)	-37	4225	12	4.5	3	0	x
CC(C)(CN1CCN(Cc2ccccc2)CC1)NS(=O)(=O)c1ccccc1	-19	4304	5	4.0	15	2	-1
COc1ccccc1N1CCN(C(=O)c2oc3c(c2C)C(=O)CC(C)(C)C3)CC1	-6	5820	-2	1.5	1	-2	-6
Cc1ccc(-c2cc(C(=O)NCC3CCCO3)c3ccccc3n2)cc1C (configuration not stated)	-14	4436	5	6.6	-3	14	9
Nc1nonc1-n1nnc(C(=O)N/N=C/c2cccc(Cl)c2Cl)c1CN1CCCC1	-13	3966	x	x	x	x	-1

An excerpt from above in order of SMILES length, descending:
SMILES	PrP 5UTR inh	Bead autofluor	Sa ugtP lethal	RN4220 kill	Mtb hypoxia rep	Mtb hypoxia rep growth	BJeLR lethal
CCN1C(=NCC(C)C)N[C@@H](CCc2ccccc2)[C@H](C(=O)NCC(C)C)[C@H]1C	-8	3407	x	x	x	x	1
CN(C1CC(C)(C)N(O)C(C)(C)C1)S(=O)(=O)CC12CCC(CC1=O)C2(C)C (configuration not stated)	-37	4225	12	4.5	3	0	x
CCOC(=O)c1cnc2c(ccc3ccccc32)c1NCCN(C)C	-9	3021	12	2.5	14	2	5

Next section:
SMILES	PrP 5UTR inh	Bead autofluor	Sa ugtP lethal	RN4220 kill	Mtb hypoxia rep	Mtb hypoxia rep growth	BJeLR lethal
O=C(O)COc1ccccc1C=NNC(=O)C(=Cc1ccc2c(c1)OCO2)NC(=O)c1ccccc1	x	x	-3	5.6	6	11	x
C=CCNS(=O)(=O)c1sccc1/C=N/O	-18	10044	x	x	x	x	-3
COc1cccc(NN=Cc2cccc(Br)c2O)c1	x	x	18	-6.4	8	7	x
CNCC(NCC(NCCCc1ccccc1)c1ccccc1)C(C)O (configuration not stated)	x	x	-1	6.9	6	-2	x
CN(C)c1ccc(C=NCC2(O)CCOC(C)(C)C2)cc1 (configuration not stated)	-1	3830	0	1.1	x	x	-5
NS(=O)(=O)c1ccc(CCNC(=O)c2ccccc2OCc2ccc(F)cc2)cc1	-8	3772	20	10	2	3	7
CCCCOC(=O)c1ccc(NC(=O)c2c(OC)cccc2OC)cc1	-18	2517	12	3.9	-9	-12	1
CC(=O)Nc1ccc(NC(=O)CSc2nnnn2-c2ccccc2F)cc1	-8	3961	2	3.2	17	3	-6
O=C(CCc1ccc(S(=O)(=O)NC2CCCCC2)cc1)Nc1ccccc1	-19	2742	-6	-3.7	x	x	6

Bioassay records: PubChem BioAssay, several laboratories

Random draw from the library. Share with any hit: about 4%.
